Bioassay records: PubChem BioAssay, Broad Institute
NOMO-1 viab: STK33 inhibitor candidate reducing NOMO-1 cell viability. AID 2330. NOMO-1 AML viability, CellTiter-Glo luminescence, 72 h. actives 7.5% (n = 37,000). inhibition, % (test concentration not listed);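 active = most replicates above 80%; inconclusive = exactly half above 80%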;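 note: wells of about 30 µL received 25 nL stock; 0% = median of vehicle wells and 100% = reference inhibitor level; the first replicate is given; inactives centre near 10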
* = called active by the depositor; ? = inconclusive. This is a subset. The share of hits here may be higher or lower than overall.

SMILES	NOMO-1 viab
NS(=O)(=O)c1ccc(CCNC(=O)c2cc(-c3cccnc3)nc3ccc(Br)cc23)cc1	15
COc1ccc(NC(=O)N(C)C[C@@H]2Oc3ccc(NC(=O)Cc4cn(C)c5ccccc45)cc3C(=O)N([C@@H](C)CO)C[C@H]2C)cc1	18
C[C@@H]1CN([C@H](C)CO)C(=O)c2cccc(NS(=O)(=O)c3ccccc3)c2O[C@H]1CN(C)Cc1ccccc1	30
C[C@H]1CN([C@@H](C)CO)C(=O)c2cccc(NS(=O)(=O)c3cccs3)c2O[C@H]1CN(C)Cc1ccccc1	22
C[C@@H]1CN([C@@H](C)CO)C(=O)c2cccc(NC(=O)Nc3ccc(C(F)(F)F)cc3)c2O[C@H]1CN(C)Cc1ccc2c(c1)OCO2	85*
O=C(COc1ccc(Br)cc1)Nc1cccc(-c2nc3ccccc3o2)c1	18
Cn1c(SCC(=O)Nc2cccc(F)c2)nnc1-c1cc2ccccc2o1	-3
C[C@@H]1CCCCO[C@@H](CN(C)C(=O)Nc2cccc3ccccc23)[C@@H](C)CN([C@H](C)CO)C(=O)c2cc(NC(=O)Nc3cccc4ccccc34)ccc2O1	19
C[C@@H]1CN([C@H](C)CO)C(=O)c2cccc(NC(=O)c3ccncc3)c2O[C@@H]1CN(C)Cc1ccc(C(=O)Nc2ccccc2N)cc1	128*
CCN(CC(=O)Nc1cccc(F)c1)S(=O)(=O)c1ccc(Cl)cc1	2
COc1ccc(S(=O)(=O)Nc2cccc3c2O[C@H](CN(C)C)[C@H](C)CN([C@@H](C)CO)C3=O)cc1	3
CC(=O)O[C@H]1C[C@@H](OC(C)=O)C(C)(C)C2C[C@@H](OC(C)=O)[C@@]3(C)C4=CC(=O)O[C@@H](c5ccoc5)[C@]4(C)CCC3[C@]21C (stereo partly specified)	1
C[C@H]1CN([C@@H](C)CO)C(=O)c2cccc(NC(=O)C3CCOCC3)c2O[C@@H]1CN(C)S(=O)(=O)c1ccc(F)cc1	-4
CN(C)/C=C/C(=O)c1ccsc1	48
C[C@@H]1CN([C@H](C)CO)C(=O)c2cc(N(C)C)ccc2O[C@@H]1CN(C)Cc1ccc(Oc2ccccc2)cc1	59
C[C@H](CO)N1C[C@H](C)[C@H](CN(C)S(=O)(=O)c2ccc(F)cc2)Oc2ccc(NC(=O)CCC(F)(F)F)cc2C1=O	13
CC(C)CCOc1ccccc1C(N)=O	15
C[C@@H]1CN([C@@H](C)CO)C(=O)c2cccc(NC(=O)c3nc4ccccc4s3)c2O[C@@H]1CN(C)Cc1ccc(Cl)c(Cl)c1	87*
C[C@H]1CN([C@@H](C)CO)C(=O)Cc2cc(NS(=O)(=O)c3ccccc3)ccc2O[C@H]1CN(C)C(=O)Nc1cccc2ccccc12	11
COc1cc2c(cc1NC(=O)C(C)Oc1ccccc1C)oc1ccccc12 (stereo unspecified)	10
COc1ccc(S(=O)(=O)N(C)C[C@H]2Oc3c(NC(=O)c4cc(C)nn4C)cccc3C(=O)N([C@@H](C)CO)C[C@@H]2C)cc1	-17
O=S(=O)(c1ccccc1)c1nc(-c2ccccc2Cl)oc1NCc1cccnc1	16
CNC[C@@H]1Oc2ccc(NC(=O)Nc3c(C)noc3C)cc2C(=O)N([C@H](C)CO)C[C@H]1C	-1
C[C@H]1CN([C@@H](C)CO)C(=O)c2cccc(NC(=O)c3cnccn3)c2O[C@H]1CN(C)S(C)(=O)=O	-14
CCOc1c(S(=O)(=O)NC2CC(C)(C)NC(C)(C)C2)ccc(Cl)c1Cl	-3
COc1ccc(NC(=O)N(C)C[C@H]2Oc3c(NC(=O)Nc4c(C)noc4C)cccc3C(=O)N([C@H](C)CO)C[C@H]2C)cc1	-7
COc1ccc(N(CC(=O)Nc2ccccc2OC)S(C)(=O)=O)cc1Cl	-6
COc1ccc(CCNS(=O)(=O)c2cc([N+](=O)[O-])ccc2C)cc1OC	14
CCC1(C)Cc2ccccc2-c2nc3[nH]nc(SCC(=O)Nc4ccc(OC)c(Cl)c4)n3c(=O)c21 (stereo unspecified)	-3
COc1ccc(CNCCCN2CCOCC2)cc1OC	32
COc1cc(C)c(Br)cc1S(=O)(=O)NCC1CCCO1 (stereo unspecified)	-16
COc1ccc(NC(=O)Nc2ccc3c(c2)C(=O)N([C@@H](C)CO)C[C@H](C)[C@@H](CN(C)S(C)(=O)=O)O3)cc1	15
O=C(CC1NC2CCCCC2NC1=O)Nc1ccc2c(c1)OCCO2 (stereo unspecified)	5
CC1=CS(=O)(=O)CC1SC(=S)N(C)C1CCS(=O)(=O)C1 (stereo unspecified)	6
Cc1ccc(S(=O)(=O)N(C)C[C@H]2Oc3ccc(N(C)C)cc3C(=O)N([C@@H](C)CO)C[C@@H]2C)cc1	-15
Cc1sc(NC(=O)c2cc3ccccc3oc2=O)c(C(=O)NCc2cccnc2)c1C	7
COc1ccc([N+](=O)[O-])cc1N(CC(=O)Nc1ccccc1Cl)S(C)(=O)=O	-19
C[C@@H]1CCCCO[C@@H](CN(C)Cc2ccc(C(=O)Nc3ccccc3N)cc2)[C@@H](C)CN([C@H](C)CO)C(=O)c2cc(NC(=O)Nc3cccc4ccccc34)ccc2O1	36
C[C@@H]1CN([C@H](C)CO)C(=O)c2cc(NS(=O)(=O)c3ccc(Cl)cc3)ccc2O[C@@H]1CN(C)S(C)(=O)=O	17
CCOC(=O)c1c(NC(=O)Cn2nc([N+](=O)[O-])c(Cl)c2C)sc2c1CCC2	64

Reprinted from the part before: 4 entries, followed by the next part.
SMILES	NOMO-1 viab
COc1ccc([N+](=O)[O-])cc1N(CC(=O)Nc1ccccc1Cl)S(C)(=O)=O	-19
C[C@@H]1CCCCO[C@@H](CN(C)Cc2ccc(C(=O)Nc3ccccc3N)cc2)[C@@H](C)CN([C@H](C)CO)C(=O)c2cc(NC(=O)Nc3cccc4ccccc34)ccc2O1	36
C[C@@H]1CN([C@H](C)CO)C(=O)c2cc(NS(=O)(=O)c3ccc(Cl)cc3)ccc2O[C@@H]1CN(C)S(C)(=O)=O	17
CCOC(=O)c1c(NC(=O)Cn2nc([N+](=O)[O-])c(Cl)c2C)sc2c1CCC2	64
COc1cc(C)c(C(=O)Oc2cc(C)c(C(=O)Oc3cc(C)c(C(=O)NC(C)C(=O)O)c(O)c3)c(O[C@@H]3O[C@H](CO)[C@@H](O)[C@H](O)[C@H]3O)c2)c(OC)c1 (stereo partly specified)	62
CN(CC(=O)O)S(=O)(=O)c1cc(Cl)ccc1Cl	2
C[C@H](CO)N1C[C@H](C)[C@H](CN(C)S(=O)(=O)c2cn(C)cn2)Oc2ccc(NS(C)(=O)=O)cc2CC1=O	-6
C[C@H]1CN([C@@H](C)CO)C(=O)Cc2cc(NC(=O)CCC(F)(F)F)ccc2O[C@H]1CN(C)C(=O)Nc1ccc(C(F)(F)F)cc1	-8
CC(Oc1ccc(Br)cc1)C(=O)Nc1ccccc1[N+](=O)[O-] (stereo unspecified)	-14
CC(C)NC(=O)N(C)C[C@@H]1Oc2c(NC(=O)c3cnccn3)cccc2C(=O)N([C@H](C)CO)C[C@H]1C	2
C[C@@H]1CN([C@@H](C)CO)C(=O)c2cccc(NC(=O)NC3CCCCC3)c2O[C@@H]1CN(C)C(=O)Nc1ccc(F)cc1	42
C[C@@H]1CN([C@H](C)CO)C(=O)c2cc(NC(=O)CCC(F)(F)F)ccc2O[C@@H]1CN(C)Cc1ccccc1	16
C[C@H](CO)N1C[C@H](C)[C@@H](CN(C)Cc2ccc(C(=O)Nc3ccccc3N)cc2)Oc2c(NS(=O)(=O)c3ccc(F)cc3)cccc2C1=O	43
C[C@H](CO)N1C[C@H](C)[C@@H](CN(C)Cc2ccc(Cl)c(Cl)c2)Oc2c(NC(=O)C3CCOCC3)cccc2C1=O	34
C[C@@H]1CCCCO[C@H](CN(C)S(=O)(=O)c2ccc(Cl)cc2)[C@@H](C)CN([C@H](C)CO)C(=O)c2cc(NS(=O)(=O)c3ccc(F)cc3)ccc2O1	?
CNC[C@H]1Oc2ccc(NC(=O)Nc3cccc4ccccc34)cc2C(=O)N([C@@H](C)CO)C[C@@H]1C	13
C[C@@H]1CN([C@@H](C)CO)C(=O)c2cc(NC(=O)Cc3ccccc3)ccc2O[C@H]1CN(C)S(C)(=O)=O	19
C[C@H](CO)N1C[C@H](C)[C@H](CN(C)C(=O)Nc2ccc(F)cc2)Oc2ccc(NC(=O)c3ccncc3)cc2CC1=O	-12
C[C@@H]1CN([C@H](C)CO)C(=O)c2cc(NC(=O)CCN3CCOCC3)ccc2O[C@H]1CN(C)C	6
COc1ccc(NC(=O)N(C)C[C@@H]2Oc3ccc(NC(=O)Nc4ccccc4)cc3CC(=O)N([C@H](C)CO)C[C@@H]2C)cc1	8
CC(O)c1nc2ccccc2n1CCOc1ccc(F)cc1 (stereo unspecified)	11
COc1ccc(C(=O)O)cc1S(=O)(=O)NCCc1ccc(F)cc1	10
C[C@@H]1CN([C@@H](C)CO)C(=O)c2cccc(NS(=O)(=O)c3ccccc3)c2O[C@H]1CN(C)Cc1ccc(Oc2ccccc2)cc1	23
COc1ccc(-c2nc3ccccc3s2)cc1NC(=O)COc1ccccc1[N+](=O)[O-]	-15
COc1ccc(NC(=O)Nc2ccc3c(c2)C(=O)N([C@@H](C)CO)C[C@@H](C)[C@@H](CN(C)Cc2ccc(Cl)c(Cl)c2)O3)cc1	60
Cc1cc(Br)cc(C)c1NC(=O)CSc1nnc(-c2cc3cc(Cl)ccc3o2)n1C	8
C[C@@H]1CCCCO[C@H](CN(C)S(=O)(=O)c2ccccc2)[C@@H](C)CN([C@H](C)CO)C(=O)c2cc(NS(=O)(=O)c3cn(C)cn3)ccc2O1	3
CC1=C(C)CC(C(=O)c2ccc(C)cc2)C(C(=O)O)C1 (stereo unspecified)	10
C[C@@H]1CN([C@H](C)CO)C(=O)c2cc(NC(=O)CCCN(C)C)ccc2O[C@H]1CN(C)C(=O)Nc1ccc(F)cc1	-8
O=C(CSC1CC(=O)N(c2ccccc2)C1=O)Nc1ccc(Cl)c(Cl)c1 (stereo unspecified)	10
Nc1cc(=O)nc(SCC(=O)NCc2ccccc2)n1-c1ccccc1	9
O=C(OCc1ccco1)c1ccc(S(=O)(=O)N2CCCCC2)cc1	35
C=C1C2=CC(=O)O[C@@H](c3ccoc3)[C@]2(C)CCC1[C@@]1(C)C=CC(=O)C(C)(C)[C@@H]1CC(=O)OC (stereo partly specified)	13
CCSC(=O)NC1CCCCC1	16

Two records drawn at random from those above:
SMILES	NOMO-1 viab
C[C@@H]1CCCCO[C@H](CN(C)S(=O)(=O)c2ccccc2)[C@@H](C)CN([C@H](C)CO)C(=O)c2cc(NS(=O)(=O)c3cn(C)cn3)ccc2O1	3
C[C@@H]1CN([C@H](C)CO)C(=O)c2cc(NC(=O)CCCN(C)C)ccc2O[C@H]1CN(C)C(=O)Nc1ccc(F)cc1	-8

Further compounds.
SMILES	NOMO-1 viab
C[C@H](CO)N1C[C@H](C)[C@@H](CN(C)Cc2ccc3c(c2)OCO3)Oc2c(NC(=O)NC3CCCCC3)cccc2C1=O	77
COc1ccc(NC(=O)Nc2ccc3c(c2)C(=O)N([C@H](C)CO)C[C@H](C)[C@H](CN(C)C(=O)Nc2ccc(F)cc2)OCCCC[C@@H](C)O3)cc1	9
Nc1nonc1N1CCCCC1	-14
CC(C)NC(=O)N(C)C[C@H]1Oc2ccc(NC(=O)Nc3cccc4ccccc34)cc2C(=O)N([C@H](C)CO)C[C@@H]1C	22
C[C@H](CO)N1C[C@H](C)[C@@H](CN(C)S(=O)(=O)c2ccc(Cl)cc2)Oc2ccc(NC(=O)Nc3cccc4ccccc34)cc2C1=O	12
C[C@H](CO)N1C[C@H](C)[C@@H](CN(C)S(C)(=O)=O)Oc2c(NC(=O)c3nc4ccccc4s3)cccc2C1=O	12
CC(C)(CO)NC(=O)c1sc2ccccc2c1Cl	25
CNC[C@H]1Oc2c(NC(=O)Nc3ccc(C(F)(F)F)cc3)cccc2C(=O)N([C@H](C)CO)C[C@H]1C	19
Cc1noc(C)c1NC(=O)N(C)C[C@H]1Oc2ccc(NC(=O)Nc3cccc4ccccc34)cc2C(=O)N([C@@H](C)CO)C[C@@H]1C	8
C[C@@H]1CN([C@H](C)CO)C(=O)c2cc(NS(C)(=O)=O)ccc2O[C@@H]1CN(C)C	-5
Oc1c(C(c2ccncc2)N2CCCC2)ccc2cccnc12 (stereo unspecified)	143*
O=C(O)CCSc1nnc2c(n1)[nH]c1ccccc12	17
O=C(Cn1cc(C(=O)c2ccccc2F)c2ccccc21)Nc1ccccc1	89*
CC/C=C\CC1C(=O)C=C/C1=C/CCCCCCC(=O)O (stereo unspecified)	66
CC(=O)CCc1c(C)[nH]c2ccc(NC(C)=O)cc2c1=O	-22
COc1ccc(CCNC(=S)Nc2c(C)nn(C)c2C)cc1OC	1
CNC[C@@H]1Oc2ccc(NC(=O)CCC(F)(F)F)cc2CC(=O)N([C@H](C)CO)C[C@@H]1C	-1
COc1cc2ccc(=O)oc2c(O[C@@H]2O[C@H](CO)[C@@H](O)[C@H](O)[C@H]2O)c1OC	5
COc1cc(C(Nc2ccccn2)c2cc(Cl)c3cccnc3c2O)cc(I)c1O (stereo unspecified)	25
CC(C)(C)c1cc(CN2CCOCC2)c(C(=O)O)o1	23
C[C@H]1CN([C@@H](C)CO)C(=O)c2cc(NC(=O)Nc3ccccc3)ccc2O[C@H]1CN(C)C(=O)Nc1ccccc1	22

Entries shown so far containing bromine:
SMILES	NOMO-1 viab
NS(=O)(=O)c1ccc(CCNC(=O)c2cc(-c3cccnc3)nc3ccc(Br)cc23)cc1	15
O=C(COc1ccc(Br)cc1)Nc1cccc(-c2nc3ccccc3o2)c1	18
COc1cc(C)c(Br)cc1S(=O)(=O)NCC1CCCO1 (stereo unspecified)	-16
CC(Oc1ccc(Br)cc1)C(=O)Nc1ccccc1[N+](=O)[O-] (stereo unspecified)	-14
Cc1cc(Br)cc(C)c1NC(=O)CSc1nnc(-c2cc3cc(Cl)ccc3o2)n1C	8
